# Calb biofilm kill: mixture kills Candida albicans biofilm cells; C. albicans biofilm persisters + clotrimazole, fluorescence viability; primary screen in compound mixtures of four per well; inhibition, % at 7.6 µM; 0.02% of 120,000 active;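 active = inhibition above 30.3% in the primary screen of four-compound pools, then above 30% when the compound was retested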;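 note: compounds exposed to preformed 24 h biofilms for 48 h; the number belongs to the whole pool; some results filed as inactive read as strong as hits; inactives centre near 12; 0% = biofilm with clotrimazole alone and 100% = kill control; retested singly at about 60 µM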
#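 Test system: C. albicans CAF4-2 wild-type biofilms; buffer or medium: RPMI/MOPS medium, pH 7.0; schedule: 24 h biofilm formation, then 48 h compound exposure, 37 °C; detection: Alamar Blue fluorescence; measure: percent inhibition of biofilm viability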
# * hit, by the source's call; & = joins results of further samples.
# The opening 2 compounds (preview)
structure | Calb biofilm kill
CC(C)CNC(=S)NNC(=O)c1nn(C)cc1Cl | 11.3
Cc1sc2ncn(CC(=O)Nc3cccc(S(N)(=O)=O)c3)c(=O)c2c1-c1ccccc1 | 12.7

# The listing, previewed entries included:
structure | Calb biofilm kill
CC(C)CNC(=S)NNC(=O)c1nn(C)cc1Cl | 11.3
Cc1sc2ncn(CC(=O)Nc3cccc(S(N)(=O)=O)c3)c(=O)c2c1-c1ccccc1 | 12.7
O=C(N/N=C/c1ccc2cccnc2c1)c1ccco1 | 16.0
CCOC(=O)c1ccc2[nH]c3ccccc3c2c1 | 22.3
CCOc1ccc2c(c1)-c1c(ssc1=S)C(C)(C)N2C(=O)c1ccco1 | 8.1
O=C(O)Cn1cc(/C=C/[N+](=O)[O-])c2ccccc21 | 23.3
CNC(=S)N(Cc1ccccc1)Cc1cccnc1 | 13.9
CC(C)=CC(=O)Nc1nc2ccc([N+](=O)[O-])cc2s1 | 8.6
COc1ccc(NC(=O)CSc2ncc(-c3ccc(F)cc3)n2Cc2ccco2)cc1 | 1.7
COC(=O)c1ccc(S(=O)(=O)NCc2ccccn2)n1C | 20.7
Cc1cc(C(=O)OCC(=O)c2ccc(Cl)c([N+](=O)[O-])c2)c2cccc(C)c2n1 | 14.9
COc1ccc(CCNC(=O)C(NS(=O)(=O)c2ccc3c(c2)CCN3C(C)=O)C(C)C)cc1OC (stereo unspecified) | 14.7
OC(COCc1ccc(Cl)cc1)CN1CCN(c2ccccn2)CC1 (stereo unspecified) | 6.4
O=c1nc(/C=C/c2ccc(O)c(O)c2)oc2ccccc12 | 29.5
Cc1ccc(NC(=O)c2ccccc2Cl)cc1-n1cnnn1 | 32.3
CNC(=S)/N=C(\Nc1ccc(C)cc1)c1ccccc1 | 4.1
O=C(Nc1ccc(F)cc1)Nc1ccc(N2CCOCC2)c2nonc12 | 8.8
O=C(CNS(=O)(=O)c1ccccc1)NCC(=O)OCc1ccc(C(=O)c2ccccc2)cc1 | 15.6
CCOC(=O)c1c(C)[nH]c(C(=O)COC(=O)c2ccc(O)cc2O)c1C | 7.9
COc1ccc(C(=S)N2CCOCC2)cc1OS(=O)(=O)c1ccccc1[N+](=O)[O-] | 16.9
Cc1cc(/C(O)=C2\C(=O)C(=O)N(CCN(C)C)C2c2ccncc2)ccc1OCc1ccccc1 (stereo unspecified) | 3.4
Cn1ncc2c(NNC(=O)c3ccccc3Cl)ncnc21 | 4.2
COc1cc(C(=O)NCC(c2cccnc2)N2CCN(c3ccc(F)cc3)CC2)cc(OC)c1OC (stereo unspecified) | 19.9
C[C@H]1CCC[C@]2(O[C@@H](CCO)C[C@H](O)[C@H]2O)O1 | -3.9
COCCn1c(N)c(N(Cc2ccccc2)C(=O)Cc2c(Cl)cccc2Cl)c(=O)[nH]c1=O | -7.3
Cc1ccc(-c2cc(C(=O)Nc3ccc(S(=O)(=O)Nc4nc(C)cc(C)n4)cc3)c3ccccc3n2)cc1 | 15.7
NC1=NCC(O)=C1c1nc2ccccc2[nH]1 | 10.9
O=C(CN(c1ccccn1)S(=O)(=O)c1ccccc1)N/N=C/c1cccc([N+](=O)[O-])c1 | 5.6
CCOc1ccc(NC(C)C(=O)N/N=C/c2ccc([N+](=O)[O-])cc2)cc1 (stereo unspecified) | 19.7
CC(=O)Nc1ccc(S(=O)(=O)NCCSCc2cccc(Cl)c2)cc1 | 21.7
O=C(Nc1ccc(-c2cn3ccccc3n2)cc1)c1cccs1 | 23.8
CC1Cc2ccccc2N1S(=O)(=O)c1ccc(Cl)nc1 (stereo unspecified) | 14.3
O=C(Nc1ncc([N+](=O)[O-])s1)c1cccc([N+](=O)[O-])c1 | 17.4
Cc1nc(Nc2nc(CSc3ccc(Cl)cc3)cc(=O)[nH]2)nc2ccccc12 | 7.5
COc1cccc(C2C3=C(N=c4s/c(=C\c5cccc(O)c5)c(=O)n42)c2ccccc2CC3)c1OC (stereo unspecified) | 21.5
COc1cc(/C=N/Nc2cc(C)nc(NS(=O)(=O)c3ccc(C)cc3)n2)ccc1O | 11.0
Cc1nc2c(C)cccc2c(SC(=N)N)c1CC=C(Cl)Cl | 17.7
COc1ccc(N2CCN(C(=O)c3oc4ccccc4c3C)CC2)cc1 | 3.5
CC(=O)OCC[N+](C)(C)C | 14.2&0.2
COc1cc(C(=O)NCC(=O)N/N=C/c2ccc(OC(=O)c3ccco3)cc2)cc(OC)c1OC | 12.9
O=C(Cc1ccccc1)NN1C(=O)C2C(C1=O)C1C=CC2C12CC2 (stereo unspecified) | 16.6
COC(=O)c1cc(C#N)c(N2CCN(C)CC2)nc1C | 15.7
CC(C)(C)NC(=O)CN1CCC(O)(c2ccc3c(c2)OCO3)CC1 | 14.6
CCCCC(=O)NC1(C(F)(F)F)NC(=O)N(Cc2ccccc2)C1=O (stereo unspecified) | 13.4
COC(=O)CC1C(=O)NCCN1C(=O)CSc1nnnn1-c1ccc(Cl)cc1 (stereo unspecified) | 15.2
CCn1c(C)nc2cc(C(=O)NNS(=O)(=O)c3c(F)cc(F)c(Cl)c3F)ccc21 | 2.1
c1coc(CSc2ncnc3c2oc2ccccc23)c1 | 31.7
COc1ccc(OCC(=O)N/N=C/c2ccc(OC)c(OC)c2C(=O)O)cc1 | 0.2
Cc1ccccc1N=C1NN=C(c2ccccc2F)CS1 | 20.6
CCN(CC)S(=O)(=O)c1ccc(N=NC2=C(O)CC(C)(C)CC2=O)cc1 | 5.3

# In the list so far, 2 have a thiophene ring, fused or not:
structure | Calb biofilm kill
Cc1sc2ncn(CC(=O)Nc3cccc(S(N)(=O)=O)c3)c(=O)c2c1-c1ccccc1 | 12.7
O=C(Nc1ccc(-c2cn3ccccc3n2)cc1)c1cccs1 | 23.8

# More results
structure | Calb biofilm kill
CCCCNC(=O)c1ccc(CNS(=O)(=O)c2ccc(Br)cc2)cc1 | 6.3
CC(=O)c1c(COC(=O)c2ccc(C)cc2)nc2ccccc2[n+]1[O-] | 9.6
CCOC(=O)c1sc(=NC(=O)c2cccc(C)c2)n(C)c1C | 4.6
CC(NC(=O)c1sc2cc([N+](=O)[O-])ccc2c1Cl)C(C)(C)C (stereo unspecified) | 11.6
COc1ccc(C(=O)CN2CCN(S(=O)(=O)c3cccc([N+](=O)[O-])c3)CC2)cc1 | 5.0
Cc1ccc(/C=C/C(=O)OCc2nc(N)nc(Nc3ccccc3C)n2)o1 | 15.5
O=C(NCc1ccco1)C(=O)NCC1OCCN1S(=O)(=O)c1cc(F)ccc1F (stereo unspecified) | 7.6
O=C(Nc1cccc(NC(=O)C2CCCO2)c1)c1ccco1 (stereo unspecified) | 6.2
CCOc1ccc(N2C(=O)CC(Sc3nnnn3-c3ccccc3)C2=O)cc1 (stereo unspecified) | 7.3
CCO/N=C(/C)c1c(O)cc(C(C)(C)C)n(-c2ccccc2)c1=O | 16.4
COc1cc(OC)c(C2C(C#N)=C(C)NC(C)=C2C#N)c(C(=O)O)c1 | 15.5
CC1C(=O)CCCCCCCCCC2C1(N1CCOCC1)CS2(=O)=O (stereo unspecified) | 11.2
CCOC(=O)C1(C)/C(=N/Nc2ccc(S(N)(=O)=O)cc2)C(=O)C(=O)N1c1ccccc1 (stereo unspecified) | 5.1
C=CCOc1ccc(CNCCO)cc1OCC | 10.6
O=C(COc1ccc2c(c1)CCC2)N1CCN(c2cccc(C(F)(F)F)c2)CC1 | 9.3
C=CCNC(=O)c1onc(CSc2cccc(OC)c2)c1C(=O)NCC=C | 8.6
C=C(C)CNC(=S)NNC(=O)c1ccc(Br)cc1 | 13.1
Cc1ccc(C)c(NC(=S)N2CCCCCC2)c1 | 11.6
O=C1CSC(c2ccccc2[N+](=O)[O-])N1CCc1ccccc1 (stereo unspecified) | 2.8
O=C1/C(=C/c2cccnc2)SC(=S)N1c1ccc(O)cc1 | 24.1
Cc1csc(NC(=O)c2cc(=O)[nH]c3ccc(S(=O)(=O)N4CCOCC4)cc23)n1 | -2.0
Nc1[nH]ncc1-c1ccccc1 | 20.1
CC(C)(C)OC(=O)NCCCCCc1nnc(SCc2c(F)cccc2Cl)o1 | 18.8
O=c1c2ccccc2nnn1CCN1CCOCC1 | 13.8
COCCNC(=O)c1ccc2c(=O)n(CCCN3CCCC3=O)c(=S)[nH]c2c1 | 5.8
CC(C)C[C@H](NC(=O)c1[nH]cnc1C(=O)N[C@H](C)c1ccccc1)C(=O)OCc1ccccc1 | 14.6
O=C(COC(=O)CCSc1ccccc1Cl)Nc1ccc(F)cc1F | 18.9
Cc1cc(C)c(C)c(S(=O)(=O)N2CCN(CC(=O)c3c(N)n(Cc4ccccc4)c(=O)n(C)c3=O)CC2)c1C | 16.2
COc1ccccc1C(=O)NC(CCSC)C(=O)OC(C)C(N)=O (stereo unspecified) | -1.3
CSc1cccc(NC(=O)CCCOc2ccc(Cl)cc2C)c1 | 5.3
Cc1ccc(CSc2ccc3nnc(-c4cccnc4)n3n2)cc1 | 5.4
O=C(Nc1ccncc1)c1ccccc1-c1ccccc1 | 27.3
CCOC(=O)C1CCN(c2c(NCCCN3CCCCC3)c(=O)c2=O)CC1 | 19.6
COc1ccc(/C=C2\SC(=O)N(CCC(=O)Nc3ccc(S(=O)(=O)Nc4nccs4)cc3)C2=O)cc1 | 14.9
COC(=O)c1sccc1NC(=S)Nc1ccc(C)cc1 | 28.1
Cc1noc(C)c1C(=O)N1CCC(CO)(Cc2ccccc2)CC1 | 14.2
CCOc1ccc(NC(=O)Nc2cnccn2)cc1 | 20.5
O=C(CSc1nc2ccccc2s1)NC1CCCc2ccccc21 (stereo unspecified) | 9.8
CN(C)c1ccc2c3c(ccc(N(C)C)c13)COC2 | 14.3
CSc1nc(C)c(Cc2ccccc2)c(=O)[nH]1 | 12.9

# Some of the entries so far, with each value named:
CC(C)(C)NC(=O)CN1CCC(O)(c2ccc3c(c2)OCO3)CC1
  Calb biofilm kill: 14.6

CCCCC(=O)NC1(C(F)(F)F)NC(=O)N(Cc2ccccc2)C1=O (stereo unspecified)
  Calb biofilm kill: 13.4

COC(=O)CC1C(=O)NCCN1C(=O)CSc1nnnn1-c1ccc(Cl)cc1 (stereo unspecified)
  Calb biofilm kill: 15.2

CCn1c(C)nc2cc(C(=O)NNS(=O)(=O)c3c(F)cc(F)c(Cl)c3F)ccc21
  Calb biofilm kill: 2.1

# New compounds follow
structure | Calb biofilm kill
Oc1ccccc1-c1cc(C(F)(F)F)[nH]n1 | 19.0
COc1cccc(C(C(=O)NC2CCCCC2)N(CCN2CCOCC2)C(=O)C2COc3ccccc3O2)c1 (stereo unspecified) | -0.7
O=C(NC(=S)Nc1cc(S(=O)(=O)N2CCOCC2)ccc1N1CCOCC1)C1CCCC1 | 5.0
C=CCNC(=O)C1CCC(C(=O)NCC=C)CC1 (stereo unspecified) | 10.4
CSc1c(-c2ccccn2)c(N)nn1C(=O)C1CCC1 | 4.7
CC(C)CNC(=O)c1ccccc1NC(=O)c1ccccc1N(C)S(C)(=O)=O | 7.4
COc1ccccc1NC(=O)CCSc1nc(C)cc(C)n1 | 22.9
COc1ccc(N2CCN(C(=O)c3ccc(SC)cc3OC)CC2)cc1 | 14.3
COc1ccc(CCNC(=O)CC2SC(=NCc3ccccc3OC)NC2=O)cc1 (stereo unspecified) | -0.5
COc1ccc(CN2CCNC(=O)C2CC(=O)N(C)Cc2ccncn2)c(OC)c1 (stereo unspecified) | 14.2
Cc1cc(/C=C(\C#N)C(=O)N2CCOCC2)c(C)n1C1CCCC1 | 13.9
O=C(C[n+]1ccc(C(=O)NCCCO)cc1)c1cccc(Br)c1 | 23.8
COc1ccc(-n2nc(C(=O)NCC(=O)N3CCN(c4ccccn4)CC3)c3ccccc3c2=O)cc1OC | 14.4
Cc1ccc(CNC(=O)C(Cc2ccccc2)NS(=O)(=O)c2ccc(Br)s2)cc1 (stereo unspecified) | 9.6
Cc1sc2ncnc(SCC(=O)N3c4ccccc4Sc4ccc(Cl)cc43)c2c1C | 14.8
O=C(Cn1cc(SCc2cccc(Cl)c2)c2ccccc21)N1CCOCC1 | 11.3
CSc1ncc(Cl)c(C(=O)Nc2ccccc2Br)n1 | 11.7
CCc1ccc(-c2nc(NC(=O)c3ccc(OCC(=O)Nc4ccc(F)cc4)c(OC)c3)sc2C)cc1 | 21.2
Cn1cc(C(=O)NCCO)c(=O)c2ccccc21 | 12.2
Cc1ccc(C)c(NC(=S)N(Cc2cccc(Br)c2)CC2CCC(C(=O)O)CC2)c1 (stereo unspecified) | 16.8
Cc1ccc2nc(-c3ccccc3)c(CC(=O)O)c(C(=O)O)c2c1 | 28.2
Oc1ccc2ccccc2c1C=Nc1ccccc1 | 16.0
CN(CC(=O)NC1CCCc2ccccc21)S(=O)(=O)c1cccs1 (stereo unspecified) | 13.8
O=C(O)c1cc(NC(=O)c2ccc(Cl)c([N+](=O)[O-])c2)cc(C(=O)O)c1 | 11.3
O=C(CN1CCCCC1)Nc1ccc(NC(=O)c2ccccc2Cl)cc1Cl | 7.0
CN1CCN(/C=C(\C#N)S(=O)(=O)c2ccc(Cl)cc2)CC1 | 21.6
Cn1c(-c2cccc(Br)c2)n[nH]c1=O | 5.3
O=C(Cc1cccs1)N/N=C/C=C/c1ccccc1[N+](=O)[O-] | 30.2
Cn1nnnc1SCCNCc1ccccc1OCc1ccccc1 | 3.0
COc1ccc(-c2[nH]ncc2CNC(C)c2cn(C)nc2C)c(F)c1 (stereo unspecified) | 29.2
CCOC(=O)CC(NC(=O)CCc1c(C)nc2nc(C)nn2c1C)c1ccc(OC(C)C)cc1 (stereo unspecified) | 9.7
CCOC(=O)c1nn(-c2ccc(F)cc2)c2nc(Nc3ccccc3)cc(=O)n12 | 16.2
CCOC(=O)N1CCN(c2c(NCc3ccccc3Cl)c(=O)c2=O)CC1 | 24.6
Cc1sc2nc3ccc(N4CCCC4)nn3c(=O)c2c1C | 17.4

# An excerpt. The share of hits here may be higher or lower than overall.
